GLA inh pH 4.5 – qHTS Assay for Inhibitors of Human alpha-Galactosidase at pH 4.5 | 230,000 tested, under 10 active | purified enzyme, 4-MU-alpha-Gal fluorescence, pH 4.5 | AID 1467, 2008 | activity change, negative = inhibition, % at 105 µM | Alpha-galactosidase A (Homo sapiens), P06280; inconclusive = small, poorly fitted or top-dose-only inhibition, or a rising curve; inactive = flat fitted curve, though single readings scatter; no compound was filed as active;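 note: 0% = full activity with enzyme and -100% = basal without enzyme; dose as in the result columns while the protocol names 77 µM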
Rango-impB inh – qHTS Assay for Inhibitors of Rango (Ran-regulated importin-beta cargo) - Importin beta complex formation; AID 540263, 2011; Rango CFP/YFP FRET sensor + importin beta, 45 min; Potency, µM (doses to about 92.2 µM), without a hit: at the top dose inhibition of complex formation; 340,000 tested, 0.031% active; active = rising FRET ratio curve, often small or poorly fitted; inconclusive = mostly compound fluorescence or quenching in the first reads; inactive = flat curves in all reads;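 note: potency is the fitted concentration of half-maximal effect; 0% = DMSO wells and 100% = buffer wells lacking importin beta; nearly all actives have a fitted effect of over 15% in size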
Target sequence (Q14974 whole entry, looked up): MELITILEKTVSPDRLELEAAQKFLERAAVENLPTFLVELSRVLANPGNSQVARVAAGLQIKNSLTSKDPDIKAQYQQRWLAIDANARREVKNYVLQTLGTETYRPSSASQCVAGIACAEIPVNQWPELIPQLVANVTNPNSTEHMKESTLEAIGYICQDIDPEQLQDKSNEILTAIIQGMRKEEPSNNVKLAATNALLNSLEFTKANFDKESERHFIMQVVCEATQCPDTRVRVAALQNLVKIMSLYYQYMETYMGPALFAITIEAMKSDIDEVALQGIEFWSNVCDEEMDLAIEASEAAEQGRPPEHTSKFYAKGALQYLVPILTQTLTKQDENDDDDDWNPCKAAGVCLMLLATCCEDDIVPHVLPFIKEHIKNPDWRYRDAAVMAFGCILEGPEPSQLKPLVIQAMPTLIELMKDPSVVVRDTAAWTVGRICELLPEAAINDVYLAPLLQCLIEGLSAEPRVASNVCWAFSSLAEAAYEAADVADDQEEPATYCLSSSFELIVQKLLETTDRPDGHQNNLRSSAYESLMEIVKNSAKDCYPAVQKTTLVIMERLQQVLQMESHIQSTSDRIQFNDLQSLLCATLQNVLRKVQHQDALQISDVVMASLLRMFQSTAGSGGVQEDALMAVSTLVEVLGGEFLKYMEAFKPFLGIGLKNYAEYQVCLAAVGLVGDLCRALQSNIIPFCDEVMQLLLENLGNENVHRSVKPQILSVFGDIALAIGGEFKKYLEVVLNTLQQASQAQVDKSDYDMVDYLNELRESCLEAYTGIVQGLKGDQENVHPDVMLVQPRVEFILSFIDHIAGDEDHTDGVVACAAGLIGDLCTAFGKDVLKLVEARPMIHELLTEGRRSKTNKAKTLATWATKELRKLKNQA
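FRET biosensor (snurportin 1 IBB flanked by EYFP and cerulean), 50 nM, with compound 5 min, then 0.125 microM importin beta in PBS, 1 mM DTT, 0.02% Tween-20, 0.1% BSA. CFP/YFP ratio read after 45 min at room temperature; pre-read flags interference.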
miR-21 FLuc – qHTS Assay for Modulators of miRNAs and/orActivators of miR-21; AID 2288, 2010; Potency, µM (top dose mostly 38.3 µM), for the others: at the highest dose reporter change, positive = more light; HeLa miR-21 FLuc reporter, luciferase, 48 h; 340,000 tested, under 10 active; active = well fitted rising curve with a large enough effect; inconclusive = small, poorly fitted or top-dose-only effect; inactive = no such curve, though single readings can be large or run the other way;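 note: % of control where 0% means no effect; miR-21 action dims this reporter so a rising signal means less miR-21 action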
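HeLa cells stably expressing CMV-driven firefly luciferase with a downstream miR-21 binding sequence, endogenously expressing miR-21, were treated with titrations (up to about 40uM final) for 48 hours at 37 degree Celsius. Luciferase luminescence was read after lysis.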
Rango dissoc inh – qHTS Assay for Inhibitors of RanGTP induced Rango (Ran-regulated importin-beta cargo) - Importin beta complex dissociation; Snurportin-1 (Homo sapiens) + GTP-binding nuclear protein Ran (Homo sapiens) + Importin …; Biochemical FRET Rango-importin beta, RanGTP-induced dissociation; Potency, µM (highest dose often 46.1 µM), without a hit: at the highest dose activity change, negative = inhibition; 340,000 tested, 0.071% active; AID 540253, 2011; active means falling FRET ratio curve, often poorly fitted, with flat reads before Ran was added; inconclusive means other falling curves, or compound fluorescence or quenching; inactive means flat or rising ratio curve;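 note: potency is the fitted concentration of half-maximal effect; % of control where 0% means no effect; nearly all actives have a fitted effect of over 45% in size; -100% = wells without RanGTP and RCC1; the record marks most hits as doubtful in a second field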
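Two FRET readings bracket the reaction: one 5 min after compound meets Rango–importin beta, another 45 min after RanGTP-RCC1 (0.6 uM Ran, 0.2 uM RCC1, 2 mM GTP) is added. Only the second defines inhibition.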
An asterisk follows results filed as active; u = inconclusive; x = not tested or not shown; & = joins results of further samples.

mol,GLA inh pH 4.5,Rango-impB inh,miR-21 FLuc,Rango dissoc inh
CCCCOc1ccc(-c2nnn(CC(=O)Nc3ncc(CC(=O)OCC)s3)n2)cc1,-6.8,1.2%,-4.2%,-4.8%
Cc1ccc(CN2C(=O)C(CC(C)C)Nc3ncnc(N4CCN(c5ccccc5)CC4)c32)cc1 (stereo not drawn),x,-0.1%,x,-7.3%
Cc1nc(N)[nH]c(=O)c1CCCNc1ccc(CCC2(CCl)OCCO2)cc1,x,-3.2%,x,-18.2%
Cc1cc(C(=O)NNC(=O)c2cccc(Cl)c2)no1,-5.8,-2.2%,-1.9%,-6.0%
CCCCNC(=O)COC(=O)c1cc(S(=O)(=O)N2CCCCCC2)ccc1OC,4.0,-1.4%,-2.5%,-4.2%
C#CCOCCOCCOCCNc1nc(N2CCN(C(=O)Cn3cc(CCCN=C(N)N)nn3)CC2)nc(N2CCN(C(=O)[C@H](C(C)C)n3cc(CCO)nn3)CC2)n1,8.5,6.9%,-3.9%,-2.6%
Cc1ccc(Sc2ccc(CN3CCCC3)cc2[N+](=O)[O-])cc1,-4.6,4.6%,-2.0%,25.8%
C/C=C/C(=O)N1CC2(CC(c3cccc(NC(=O)/C(C)=C/C)c3)=NO2)C[C@H]1C(N)=O (stereo partly drawn),-2.3,-1.8%,-3.2%,-11.9%
O=C(NC12CCC(O)C(SC1)/C2=N/O)c1ccccc1 (stereo not drawn),3.9,-3.1%,-2.7%,-1.6%
O=C(COC(=O)c1ccccc1-n1cnnn1)c1ccc(Br)cc1,x,-0.3%,x,-4.0%
COc1ccc(NC(=O)C2CC(c3ccc(OC)c(OC)c3)=NO2)cc1OC (stereo not drawn),-10.3,-0.9%,-0.2%,-2.8%
Cc1cc(N2CCN(c3nc4ccccc4s3)CC2)n2ncnc2n1,2.2,4.5%,15.7%,6.2%
O=C(/C=C/c1ccco1)OCn1nnc2ccccc2c1=O,-1.6,-0.6%,-9.2%,4.1%
Cc1ccccc1C(=O)NC1CCN(Cc2nnnn2C(C)(C)C)CC1,0.7,2.5%,0.0%,22.9%
O=C1Nc2cc(S(=O)(=O)N3CCCC3)ccc2N2CCCC12 (stereo not drawn),u,u,-0.2%,u
Cc1nnc(SCC(=O)N(Cc2ccccc2)C(C)C)n1-c1ccccc1,1.3,2.7%,-2.6%,-0.3%
COc1cc(C(=O)Nc2nccs2)c(Br)c(OC)c1OC,4.9,2.4%,16.8%,-10.7%
COc1ccc(S(=O)(=O)N2CCN(S(=O)(=O)c3ccc4c(c3)OCCO4)CC2)cc1C,0.8,3.3%,-8.4%,-17.0%
Cc1ccc(N/C=C(\[N+](=O)[O-])S(=O)(=O)c2ccccc2)cc1,5.0,1.3%,-3.2%,2.3%
CC1(C)Cc2nc(-c3ccccc3)nc(SCC(O)CO)c2CO1 (stereo not drawn),-3.0,2.4%,-7.1%,0.2%
Cc1c(NC(=O)c2ccc3c4c(cccc24)CC3)c(=O)n(-c2ccccc2)n1C,-7.5,-1.7%,0.7%,-8.7%
Cc1ccc(C)c(NC(=O)CN(C)C(=O)/C=C/c2ccco2)c1,1.8,-0.5%,-3.8%,-3.7%
COc1cc(OC)c(C2C(C#N)=C(N)OC3=C2C(=O)CC(C)C3)cc1OC (stereo not drawn),1.3,-0.8%,4.3%,8.0%
Cc1ccc(C)c(NC(=S)NCCc2ccc(S(N)(=O)=O)cc2)c1,x,-3.6%,x,-7.1%
O=c1c2ccccc2nnn1Cc1cccc2ccccc12,-0.2,4.5%,-29.2%,-1.9%

Next section.
mol,GLA inh pH 4.5,Rango-impB inh,miR-21 FLuc,Rango dissoc inh
Cc1ccn2c(=O)nc(SCC(=O)NCc3ccc4c(c3)OCO4)nc2c1,x,-0.5%,x,14.0%
CC1=NN(c2ccccc2)C(=O)/C1=C/c1ccc(-c2ccc(C)c(C(=O)O)c2)o1,x,-0.3%,x,18.8%
O=C(CC1SC(N2CCOCC2)=NC1=O)Nc1ccccc1Cl (stereo not drawn),x,-0.8%,x,-9.9%
Cc1cc2cc(CCNC(=O)CC(C)(C)C)c(=O)[nH]c2cc1C,3.4,0.6%,-8.6%,-8.8%
Cc1cc(C)c(-c2cc(C)nc3ncnn23)c(C)c1,-18.5,2.7%,-2.4%,-12.7%
O=C1c2cccc3cccc(c23)C(=O)N1c1ccccn1,0.0,-7.2%,1.2%,-8.4%
CCOC(=O)C1=C(C)N=c2s/c(=C/c3ccc(OCC(=O)O)cc3)c(=O)n2C1c1ccc(OC)cc1OC (stereo not drawn),x,u,-1.9%,u
CCOC(=O)N/N=C\c1ccc(OC/C=C/c2ccccc2)c(OC)c1,x,-2.0%,-7.2%,-5.0%
Cc1cnc(NC(=O)CSc2nnc(N)s2)s1,-11.8,2.7%,-3.6%,-1.4%
Cc1ccc(-c2nn(-c3ccccc3)cc2CN(C)C(=O)CCC(=O)O)cc1C,-23.4,3.0%,-24.6%,-2.3%
O=C(NCCCn1ccnc1)C1CC2CCC1C2 (stereo not drawn),9.3,-0.4%,1.8%,-7.3%
O=c1[nH]nc(Cc2ccc(-c3cccc(Cl)c3)o2)c2ccccc12,-1.9,-0.3%,-0.1%,0.2%
COCCNC(=O)CN(C(=O)CCC(=O)Nc1ccccn1)c1cc(C)ccc1C,x,-1.4%,1.4%,2.2%
Cc1ccc(C(=O)Nc2ccccn2)cc1S(=O)(=O)N1CCOCC1,x,-1.8%,x,-22.9%
COc1ccc(-c2c(-c3ccccc3OC)sc3ccccc23)cc1OC,x,3.4%,-0.3%,2.2%
CCOC(=O)C1=C(COC(=O)c2ccc(Cl)cc2[N+](=O)[O-])NC(=O)NC1C (stereo not drawn),x,0.5%,x,20.0%
CC1CCN(CCc2nc3cc(NC(=O)Nc4ccccc4)ccc3n2C)CC1,-3.1,-0.5%,-38.5%,u
CC(C)[C@@H]1NC(=O)c2cc([N+](=O)[O-])cc(I)c2NCC[C@@H](C(N)=O)NC(=O)[C@H](CO)NC1=O,-10.4,x,-5.4%,x
O=C(O)CSc1nnc(CSc2nc3ccccc3s2)n1-c1ccccc1,2.5,-1.7%,0.6%,-8.7%
COc1ccc2nc(SCC(=O)N(C)CC(=O)Nc3ccc(F)cc3)[nH]c2c1,x,0.3%,x,12.7%
C/C(=N/Nc1nc(-c2ccccc2)c(CC(=O)O)s1)c1ccccc1,-3.2,u,-18.9%,-16.9%
Cc1cccc2cc(CN(Cc3cccnc3)C(=O)c3ccncc3)c(=O)[nH]c12,-7.9,-1.2%,-6.4%,-3.2%
N#CCSc1nc2ccccc2c(=O)n1C1CCCCC1,0.5,-5.0%,21.1%,17.3%
NC(=O)C1=C[C@@H](c2csc3ccccc23)C[C@@H](OCCCCO)O1,-7.5,-1.5%,-17.9%,4.6%
CCOc1ccccc1C1C(C#N)=C(N)Oc2cc(N)ccc21 (stereo not drawn),-0.1,u,1.8%,u

Remaining list, next part:
mol,GLA inh pH 4.5,Rango-impB inh,miR-21 FLuc,Rango dissoc inh
Cc1nn(C)cc1S(=O)(=O)Nc1ncccn1,x,5.5%,-0.4%,11.3%
CN(C)CCn1c(=N)n(CC(O)c2ccc(Cl)c(Cl)c2)c2ccccc21 (stereo not drawn),-7.2,0.5%,13.5%,11.5%
CC1(C)Cc2cccc(OCC(=O)N3CCN(S(=O)(=O)c4ccccc4F)CC3)c2O1,1.5,0.0%,-0.4%,0.1%
Cc1ccc2c(c1)-c1ncc(C(=O)c3cc(Br)ccc3O)cc1CO2,0.1,x,14.0%&5.6%,x
O=C(COc1ccc(OCc2ccccc2)cc1)NN=C1CCCC1,1.7,-0.2%,-21.7%,-6.7%
O=C(Nc1cc(Cl)ccc1N1CCOCC1)c1ccc2c(c1)OCCO2,-5.5,-1.7%,-12.4%,10.5%
COc1cccc2sc(=NC(=O)CCS(=O)(=O)c3ccc(C)cc3)n(C)c12,x,0.0%,x,0.1%
O=C1C2C3C=CC(CC3)C2C(=O)N1c1ccc(Br)cc1[N+](=O)[O-] (stereo not drawn),x,2.2%,-0.4%,-6.3%
O=C(CN1CCN(c2nc(-c3ccc(Cl)cc3)cs2)CC1)NCc1ccco1,-7.4,7.3%,-7.4%,21.9%
CCOC(CNC(=O)CN1C(=O)COc2ccc(S(=O)(=O)N3CC(C)CC(C)C3)cc21)OCC (stereo not drawn),x,0.2%,-0.3%,-0.4%
C=CCC(NCc1ccccc1)c1ccc(C)o1 (stereo not drawn),x,0.0%,x,-0.7%
Cc1c(C(=O)NC(=S)Nc2ccc3c4c(cccc24)CC3)cccc1[N+](=O)[O-],6.2,5.3%,-4.9%,u
O=C(Nc1cccc(C(=O)Nc2cccc(C(F)(F)F)c2)c1)c1ccc(=O)[nH]c1,x,1.4%,-6.3%,1.7%
O=C(N/N=C/c1ccc(O)c([N+](=O)[O-])c1)C(O)(c1ccccc1)c1ccccc1,x,-1.0%,-0.4%,2.2%
O=C1CCC(=O)N1c1ccc(CSc2nnnn2C2CCCCC2)cc1,9.5,-1.5%,1.5%,3.9%
C[C@H](NC(=O)c1ccc(Cl)c(S(=O)(=O)N2CCOCC2)c1)c1nc2ccccc2[nH]1,x,-0.8%,x,-2.3%
CN(C)C(=O)c1ccc(NC(=O)COC(=O)CC23CC4CC(CC(Br)(C4)C2)C3)cc1,x,0.5%,x,-0.6%
Cc1noc(C)c1S(=O)(=O)N1CCCC(C(=O)NC2CCCCC2)C1 (stereo not drawn),9.3,2.8%,0.7%,13.5%
CC1(c2nnc(-c3ccccc3)o2)CC(c2ccc(F)cc2)=NO1 (stereo not drawn),0.0,3.9%,-10.4%,6.9%
COc1cccc(COC(=O)C2CCN(C(=O)c3ccc(F)cc3)CC2)c1OC,x,u,x,-37.9%
CCCc1nnc(NC(=O)CCC(=O)N2CCN(c3ccccc3)CC2)s1,x,-3.6%,-2.2%,-11.0%
COCCNC(=O)Cn1cnc2ccc(S(=O)(=O)N3CCC(C)CC3)cc2c1=O,2.2,-1.7%,-3.5%,15.1%
Cc1ccc(S(=O)(=O)N(C)c2ccc(OCC(=O)O)cc2)cc1,8.5,0.9%,-1.7%,-4.6%
Cc1nc(-c2ccccc2)sc1-c1nc(-c2cccnc2)ncc1S(=O)(=O)c1ccccc1,-2.5,-3.5%,-1.8%,0.7%
Cc1ccc(NC(=O)CN2C(=O)CCS(=O)(=O)c3ccccc32)cc1Cl,x,-5.9%,-7.9%,-0.1%

3 entries already listed, sorted by number of heavy atoms, ascending.
mol,GLA inh pH 4.5,Rango-impB inh,miR-21 FLuc,Rango dissoc inh
O=C1C2C3C=CC(CC3)C2C(=O)N1c1ccc(Br)cc1[N+](=O)[O-] (stereo not drawn),x,2.2%,-0.4%,-6.3%
Cc1ccc2c(c1)-c1ncc(C(=O)c3cc(Br)ccc3O)cc1CO2,0.1,x,14.0%&5.6%,x
O=C1CCC(=O)N1c1ccc(CSc2nnnn2C2CCCCC2)cc1,9.5,-1.5%,1.5%,3.9%

Continuation:
mol,GLA inh pH 4.5,Rango-impB inh,miR-21 FLuc,Rango dissoc inh
COc1ccc(NC(=O)NC2(C(=O)N3CCN4CCCC4C3)CCCCC2)cc1 (stereo not drawn),x,-2.6%,-15.3%,1.0%
CCN(CC)CCCN1C(=O)C(O)=C(C(=O)c2ccco2)C1c1cc(OC)ccc1OC (stereo not drawn),2.8,x,1.5%,x
CCOC(=O)N1CCN(S(=O)(=O)c2ccc(C(=O)Nc3nnc(CSC)o3)cc2)CC1,6.3,-1.2%,0.4%,0.4%
Fc1ccc(CSc2nnc(-c3cc4c(s3)-c3ccccc3CC4)o2)cc1,u,0.7%,-2.1%,11.2%
Cn1c(/C(C#N)=C/c2ccncc2)nc2ccccc21,12.5,1.7%,-7.7%,6.0%
Cc1ccsc1/C=N/NC(=O)Cc1ccc(Cl)cc1,0.2,-0.3%,-8.4%,-12.8%

A portion of the library; count on the stated rates, not on these rows.
